Mtb H37Rv: M. tuberculosis H37Rv growth inhibitors, H37Rv strain (AID 1626); 0.95% of 220,000 active; inhibition, % at 10 µM; hits with a dose series show IC50 in µM; M. tuberculosis H37Rv growth inhibition; higher % means a stronger effect;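 active means confirmed in a dose series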;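 further: bacteria incubated seven days before Alamar blue readout; 0% = bacteria only wells and 100% = bacteria with antibiotic wells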
Mtb betalactam: beta-lactam sensitization of Mtb H37Rv, H37Rv | M. tuberculosis H37Rv growth with meropenem, percent inhibition; hits of this screen are not shown here | inhibition, % at 25 µM | 0.27% of 330,000 active;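 active means about 74% or more and at least 40 points above the plate without the antibiotic, then above 30% in a dose series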;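 further: growth measured after seven days incubation then overnight dye step; 0% = bacteria only wells and 100% = bacteria with antibiotic; twin plates without the antibiotic show which effects depend on it; some results filed as inactive read as strong as hits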
Arbovirus inh: antivirals against arbovirus infection, primary screen, cell-based, full library, 10K replicate subset | arbovirus infection cell-based antiviral screen | inhibition, % at 10 µM | 0.37% of 200,000 active | AID 1251, 2008;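 active means inhibition from about 30%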;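 further: bluetongue infection of BSR cells; cell survival read as ATP light after 72 h; 0% = infected wells without compound and 100% = uninfected wells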
RecA splice inh: Mtb RecA intein splicing inhibitors, primary screen, biochemical, fluorescence, HTS. Protein RecA (Mycobacterium tuberculosis (strain ATCC 25618 / H37Rv)), P9WHJ3. cell-free RecA intein splicing. inhibition, %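 (about 9 µM by stock and volumes)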. 0.75% of 290,000 active. AID 2221, 2009; in the data active means inhibition above about 30%;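 further: 0% = vehicle wells and 100% = reference inhibitor control wells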
Target sequence (P9WHJ3 whole entry, looked up, canonical isoform): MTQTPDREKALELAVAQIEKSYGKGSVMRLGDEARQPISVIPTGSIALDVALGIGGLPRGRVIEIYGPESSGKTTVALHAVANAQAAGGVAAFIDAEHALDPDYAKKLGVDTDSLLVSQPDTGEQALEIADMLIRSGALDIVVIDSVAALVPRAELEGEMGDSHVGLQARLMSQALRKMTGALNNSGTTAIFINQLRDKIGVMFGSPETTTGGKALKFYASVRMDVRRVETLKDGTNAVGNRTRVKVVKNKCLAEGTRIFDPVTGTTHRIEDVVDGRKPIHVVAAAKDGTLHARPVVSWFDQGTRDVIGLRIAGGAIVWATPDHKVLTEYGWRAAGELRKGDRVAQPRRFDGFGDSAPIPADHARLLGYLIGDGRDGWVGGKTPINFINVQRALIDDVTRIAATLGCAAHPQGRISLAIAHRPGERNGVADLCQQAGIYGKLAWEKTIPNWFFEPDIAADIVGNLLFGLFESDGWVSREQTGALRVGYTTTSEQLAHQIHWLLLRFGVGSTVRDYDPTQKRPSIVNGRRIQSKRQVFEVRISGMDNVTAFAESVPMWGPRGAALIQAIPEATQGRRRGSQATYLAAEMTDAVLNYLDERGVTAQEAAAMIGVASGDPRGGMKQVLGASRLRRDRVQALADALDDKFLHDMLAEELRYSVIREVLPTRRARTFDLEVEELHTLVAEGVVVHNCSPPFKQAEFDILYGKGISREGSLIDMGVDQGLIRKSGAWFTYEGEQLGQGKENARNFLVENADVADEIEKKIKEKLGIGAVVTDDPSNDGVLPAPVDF
YopH PTP inh: YopH tyrosine phosphatase inhibitors, primary screen, biochemical, fluorescence Ex485/Em525 | inhibition, %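 (about 10 µM by stock and volumes)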 | AID 898, 2007 | YopH tyrosine phosphatase [Yersinia enterocolitica] | 0.16% of 140,000 active;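 active means inhibition of 50% or more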;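 further: controls were vehicle for no effect and minimum signal wells for full effect; inactives centre near -20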
Arbovirus inh repeat: recorded beside Arbovirus inh, whose call it bears; inhibition, %; measured here: 10K subset replicate screen; many hits read low in the repeat;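 first of two repeat runs on a subset; 0% = infected and 100% = uninfected wells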
* = called active by the depositor; . = not tested or not shown.

SMILES | Mtb H37Rv | Mtb betalactam | Arbovirus inh | RecA splice inh | YopH PTP inh | others
CCCCN(CCCC)CCNC(=O)CN1C(=O)COc2ccc(S(=O)(=O)N3CCOCC3)cc21 | . | 13 | . | -2.5 | .
CCCCn1c(N)c(N(CCOC)C(=O)COC(=O)CCOc2ccccc2C)c(=O)[nH]c1=O | . | -14 | . | -2.1 | .
O=C(Nc1cccc2ccccc12)N1CCN(Cc2ccccc2)CC1 | 8% | 11 | -2 | 2.7 | 5
COc1cc(OC)cc(-c2nc(-c3cccs3)no2)c1 | -2% | -6 | -6 | -2.2 | .
O=C(c1cc2cc(F)ccc2[nH]1)N1CCN(Cc2ccc3c(c2)OCO3)CC1 | . | 6 | . | -2.5 | .
N/C(=N\OC(=O)c1cnn(-c2ccccc2)c1C(F)(F)F)c1cc(C(F)(F)F)cc(C(F)(F)F)c1 | 4% | 12 | . | 5.0 | .
CC(C)NS(=O)(=O)c1ccc(CCC(=O)N2CCc3ccccc3C2)cc1 | 8% | -1 | 8 | -3.6 | .
COCC1CCN(C(=O)c2ccc(OC)c(OC3CCN(C(C)C)CC3)c2)CC1 | . | -12 | . | 3.9 | .
Cc1nc(C)c(C(=O)NNS(=O)(=O)c2ccccc2)s1 | 5% | 1 | -5 | -4.4 | -19
CCC1/C(=N\O)CC(c2ccco2)NC1c1ccco1 (stereo not drawn) | -14% | -6 | 0 | 3.2 | -53
Cc1ccc(-n2c(SCC(=O)NCC3CCCO3)nc3n[nH]c(C)c3c2=N)cc1Cl (stereo not drawn) | 2% | -6 | 1 | -2.0 | -29
COc1ccc2c(CC(=O)OCC(=O)Nc3ccc4c(c3)OCO4)coc2c1 | 3% | 1 | 8 | -0.2 | -10
Cn1c(Cn2c3ccccc3c3ccccc32)n[nH]c1=S | -8% | -11 | . | -1.4 | .
O=C(COC(=O)c1cc([N+](=O)[O-])ccc1N1CCOCC1)c1ccc(Br)cc1 | . | -4 | . | 3.0 | .
O=C(CSc1nccc(=O)[nH]1)c1ccco1 | -4% | -9 | 1 | -2.4 | .
O=[N+]([O-])c1cccc(C(=S)N2CCN(c3ccccc3)CC2)c1 | 8% | 4 | -2 | 3.3 | -7
O=C(Nc1ccc(F)cc1)N1CCCC(c2nc3c(nnn3Cc3ccccc3Cl)c(=O)[nH]2)C1 (stereo not drawn) | 2% | 2 | 12 | -8.3 | .
C(=Nc1cccc2c(N=Cc3ccco3)cccc12)c1ccco1 | 5% | -5 | -14 | 5.6 | .
Cc1ccc(NC(=O)Cn2nnc3ccccc32)cc1 | -6% | 2 | 0 | . | .
O=c1ccc(-c2ccccc2)nn1Cc1ccccc1F | . | 2 | . | 2.4 | .
CC(=O)N1CCN(C(=O)CSc2nnc(C)n2-c2ccccc2)CC1 | . | -3 | . | -1.5 | .
Cc1cc2cc3c(cc2nc1SCC(=O)Nc1nc(C)c(C)s1)OCO3 | -9% | -20 | -12 | 0.1 | -37
CCCc1cc(=O)oc2c(C)c(OCC(=O)Nc3ccc(CN4CCOCC4)cc3)ccc12 | . | 45 | . | 1.1 | .
O=[N+]([O-])c1cc(/C=N/OCc2c(Cl)cccc2Cl)ccc1N1CCOCC1 | -2% | 12 | 10 | 17 | 13
COC(=O)c1c(NC(=O)CSc2nnc(-c3ccco3)n2Cc2ccccc2)sc(C)c1C | 4% | -4 | -3 | 3.3 | -26

Other records.
SMILES | Mtb H37Rv | Mtb betalactam | Arbovirus inh | RecA splice inh | YopH PTP inh | others
CCN(CC)C(=O)c1ccc(COc2ccc(Cl)c(C)c2)o1 | . | 0 | . | 0.9 | .
CCc1ccc(N2CC(C(=O)Nc3ccccc3F)CC2=O)cc1 (stereo not drawn) | 0% | 1 | 0 | . | -50
Brc1ccc(-c2nc3ncccn3c2NC2CCCCC2)o1 | 6% | 17 | 22 | -4.4 | -31
CSCC(NS(=O)(=O)c1ccc(C)cc1)C(=O)O (stereo not drawn) | 2% | -5 | -4 | 0.3 | .
Cc1ccc(C(=O)NNc2ncnc3c2cnn3C)cc1 | -4% | 0 | . | -1.9 | .
CCN(CC)Cc1cc(NC2=NS(=O)(=O)c3ccccc32)ccc1OC(=O)C(C)C | 2% | 2 | -2 | -2.0 | -6
CCNc1nc(Cl)nc(NCCOc2ccc(C)cc2)n1 | 6% | -9 | 6 | 1.4 | -47
CCC(SC1=NCCS1)C(=O)Nc1ccc(S(N)(=O)=O)cc1 (stereo not drawn) | 3% | 1 | -4 | 0.9 | -31
CC(=O)Nc1c(C(=O)C2CC2)oc2ccccc12 | 9% | -6 | 2 | -1.2 | 2
COc1ccc2c(c1OC)C(=O)N(c1nccs1)C2 | 1% | 3 | 7 | 0.6 | 5
Cn1cccc1/C=C1/C(=O)NC(=S)N(Cc2ccc(F)cc2)C1=O | 5% | 99 | . | 12 | .
CCCNC(=O)C1CCC(CNS(=O)(=O)c2ccc3c(c2)CC(C)N3C(C)=O)CC1 (stereo not drawn) | . | 0 | . | 0.1 | .
O=S(=O)(c1ccccc1)C1(C2CC(c3ccccc3)=NO2)CC(O)C1 (stereo not drawn) | . | 0 | . | -1.3 | .
Cc1cc(C)nc(Nc2ccc(C)c([N+](=O)[O-])c2)n1 | 1% | 7 | -14 | -0.2 | .
Cc1ccc(CNC(=O)COC(=O)Cc2ccc(-c3ccccc3)cc2)cc1 | -6% | 3 | -2 | -0.1 | -26
CC(OC(=O)c1ccco1)C(=O)NCc1ccc2c(c1)OCO2 (stereo not drawn) | . | 4 | . | -0.5 | .
CC(C)CC(=O)NC(c1cccs1)c1ccc2cccnc2c1O (stereo not drawn) | 4% | -5 | -25 | -0.5 | .
Cc1nc([N+](=O)[O-])cn1CC(=O)c1ccc(OC(F)(F)F)cc1 | . | 10 | . | 0.6 | .
O=C(NC(=S)Nc1ccc(N2CCCC2)cc1)c1ccccc1[N+](=O)[O-] | 2% | 3 | 4 | 1.0 | -26
CNC(=O)C1CC(=O)N(Cc2ccc3c(c2)OCO3)C(=Nc2ccc(F)cc2)S1 (stereo not drawn) | -9% | -2 | -15 | 3.9 | -22
CC(C)c1oc(=O)cc2c1[C@@H](O)[C@H]1OC(=O)[C@@]3(C)C[C@@H](O)[C@@H](O)[C@@]2(C)C13 (stereo partly drawn) | -3% | -9 | -6 | 1.7 | -31
COCCn1c(SCC(=O)Nc2cccc(OC)c2)nnc1-c1ccccc1 | 11% | 0 | 3 | -4.0 | -12
O=C(CNS(=O)(=O)c1cccc(Cl)c1)Nc1ccc(-c2nc3ccccc3s2)cc1 | 2% | 11 | 3 | 0.5 | -21
Cn1cc(CN2CCC(n3nccc3NC(=O)c3ccccc3Cl)CC2)c2ccccc21 | . | 5 | . | 3.5 | .
CCCOc1ccc2oc(=O)c3c(c2c1)CCCN3C(=O)CN1CCN(C(=O)c2ccco2)CC1 | . | -5 | 11 | -2.6 | 12

Additional entries
SMILES | Mtb H37Rv | Mtb betalactam | Arbovirus inh | RecA splice inh | YopH PTP inh | others
CC(C)N(Cc1nc(-c2ccccc2)no1)C(=O)c1ccc([N+](=O)[O-])cc1 | 6% | 2 | 5 | -0.6 | .
Cc1ccccc1OCCNC(=O)CSc1ccc(C(F)(F)F)cc1[N+](=O)[O-] | 3% | -6 | 2 | 3.7 | 10
COc1ccc(NC(=O)/C=C/C(=O)O)c([N+](=O)[O-])c1 | -14% | 19 | . | . | .
O=C(O)CSc1nnc(Cc2ccccc2)n1-c1ccccc1 | 2% | -11 | 0 | -0.6 | -9
CCc1ccc(C(C)NC(=O)C2CCCC2)cc1 (stereo not drawn) | . | 0 | . | -0.5 | .
Nc1nnc(SCC(=O)OCc2ccc(Cl)c(Cl)c2)s1 | 0% | -7 | 0 | 4.5 | -17
COc1ccc2[nH]c3c(=O)n4c(nc3c2c1)SCC4 | -3% | 2 | 11 | -3.5 | .
Cc1ccc(NC(=O)c2nc[nH]c2C(=O)N2CCOCC2)c(C(=O)c2ccccc2)c1 | -9% | 0 | 5 | 1.9 | .
COc1ccc(OC)c(-n2c(-c3cc(-c4ccccc4)n[nH]3)n[nH]c2=S)c1 | -7% | -4 | 2 | 5.8 | -14
O=c1cc(-c2ccccc2)[nH]c2cc(F)ccc12 | 8% | -5 | -14 | -1.0 | -26
CCOc1ccc(-c2[nH]ncc2-c2ccc(Cl)cc2)c(O)c1 | . | 94 | . | 7.7 | .
Cc1ccc(C(=O)NCCc2ccccc2)cc1N1CCCC1=O | . | 1 | . | -4.3 | .
CCCCC(c1nnnn1CCOC)N1CCN(CC)CC1 (stereo not drawn) | 8% | 1 | 3 | . | 0
CCC1=[N+](CC(=O)c2ccc(Br)cc2)CCn2c(C)ccc21 | -2% | -5 | . | 3.0 | .
O=C(Cc1ccc([N+](=O)[O-])cc1)N/N=C/c1cccnc1 | . | -2 | . | -1.5 | .
C=C(C)C(=O)N1CC2(CC(c3cccc(NC(=O)CCCCC)c3)=NO2)C[C@H]1C(N)=O (stereo partly drawn) | -9% | -21 | . | 0.8 | .
Cc1ccc(CNC(=O)C2CCCN(c3nc(C)cc(C)n3)C2)cc1 (stereo not drawn) | -6% | 3 | -10 | -0.2 | .
CCCOc1ccc(-c2nnn(CC(=O)c3ccc4c(c3)OCCO4)n2)cc1 | 1% | 1 | -29 | -1.5 | -44
Cc1cnn(C(=O)c2cc(-c3ccccc3)nc3ccccc23)c1 | -1% | 59 | 5 | 2.9 | -20
O=C(Nc1cccn(Cc2ccccc2)c1=O)NC1CCCCC1 | -5% | -1 | 1 | . | -25
O=C(c1ccco1)N1CCN(c2ccc(Cl)c(Cl)c2)CC1 | -4% | 31 | . | 12 | -16
COc1cccc(C(=O)Nc2ccc(NC(C)=O)cn2)c1 | 4% | -7 | -2 | -0.9 | -66
O=C1NCCN1CCNS(=O)(=O)c1ccc(F)c(Cl)c1 | -3% | 0 | . | -0.2 | .
Cc1ccc(S(=O)(=O)NCCC(=O)OCC(=O)Nc2cccc(S(=O)(=O)NC3=NCCCCC3)c2)cc1 | 1% | 1 | 12 | 1.1 | .
COc1ccc(N2CCN(c3ccc(S(=O)(=O)N(C(C)C)C(C)C)cn3)CC2)cc1 | . | -2 | . | -4.8 | .
Cc1cc(OC(=O)c2ccco2)c2c3c(c(=O)oc2c1)CCC3 | 11% | 5 | 9 | 5.1 | -11 | Arbovirus inh repeat=6
O=C1c2ccccc2NC(c2ccc(Cl)cc2Cl)N1Cc1ccccc1 (stereo not drawn) | 9% | -5 | 0 | -0.6 | 5
Nc1nncn1C(=O)c1c(Cl)cccc1Cl | -3% | -1 | 3 | 3.2 | 1

Molecules listed so far that have fluorine:
SMILES | Mtb H37Rv | Mtb betalactam | Arbovirus inh | RecA splice inh | YopH PTP inh | others
O=C(c1cc2cc(F)ccc2[nH]1)N1CCN(Cc2ccc3c(c2)OCO3)CC1 | . | 6 | . | -2.5 | .
N/C(=N\OC(=O)c1cnn(-c2ccccc2)c1C(F)(F)F)c1cc(C(F)(F)F)cc(C(F)(F)F)c1 | 4% | 12 | . | 5.0 | .
O=C(Nc1ccc(F)cc1)N1CCCC(c2nc3c(nnn3Cc3ccccc3Cl)c(=O)[nH]2)C1 (stereo not drawn) | 2% | 2 | 12 | -8.3 | .
O=c1ccc(-c2ccccc2)nn1Cc1ccccc1F | . | 2 | . | 2.4 | .
CCc1ccc(N2CC(C(=O)Nc3ccccc3F)CC2=O)cc1 (stereo not drawn) | 0% | 1 | 0 | . | -50
Cn1cccc1/C=C1/C(=O)NC(=S)N(Cc2ccc(F)cc2)C1=O | 5% | 99 | . | 12 | .
Cc1nc([N+](=O)[O-])cn1CC(=O)c1ccc(OC(F)(F)F)cc1 | . | 10 | . | 0.6 | .
CNC(=O)C1CC(=O)N(Cc2ccc3c(c2)OCO3)C(=Nc2ccc(F)cc2)S1 (stereo not drawn) | -9% | -2 | -15 | 3.9 | -22
Cc1ccccc1OCCNC(=O)CSc1ccc(C(F)(F)F)cc1[N+](=O)[O-] | 3% | -6 | 2 | 3.7 | 10
O=c1cc(-c2ccccc2)[nH]c2cc(F)ccc12 | 8% | -5 | -14 | -1.0 | -26
O=C1NCCN1CCNS(=O)(=O)c1ccc(F)c(Cl)c1 | -3% | 0 | . | -0.2 | .

A portion of the library; count on the stated rates, not on these rows.
